Sa RN4220 lethal = S. aureus RN4220 growth inhibition | OD600, 16 h | inhibition, % (concentration not given with the values) | 330,000 compounds, 0.33% hits | AID 1259311;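 active = z-score of -3 or lower and OD600 up to 0.18 on both plates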;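 note: plate controls were untreated cells for no effect and reference antibiotic for full effect; stock transfer was 100 nL into about 80 µL; one replicate is shown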
Autofluor counter = counter-screen for toxin protease inhibitors: compound fluorescence | compound autofluorescence counterscreen, microsphere flow cytometry; stronger effect = higher value | fluorescence intensity (concentration not given with the values) | 360,000 compounds, 3.1% hits;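 active = at least 3 SD above the mean of all compounds, about 16000 in these data; inconclusive = too few beads counted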;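 note: 100 nL of 1 mM stock went into each well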
Mtb hypoxia rep = Mtb hypoxia fluorescent reporter inhibition. M. tuberculosis hypoxia-regulated fluorescent reporter, fluorescence. fluorescence inhibition, % (no concentration beside the values). 300,000 compounds, 0.1% hits;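 active = 35 to 45% if threefold the growth effect, above 45% if 1.5-fold the growth effect; inactive = the rest, general growth blockers included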;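 note: wells of about 50 µL received 100 nL stock; 0% = vehicle wells and 100% = reference inhibitor wells; whole bacteria with a GFP reporter of the hypoxia response; strong numbers were not always called active; many hits fall short of the cut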
PrP UTR inh = inhibition of PrP 5' UTR reporter expression; cell-based PrP 5' UTR mRNA reporter, plate reader; inhibition, % (test concentration not listed); 340,000 compounds, 0.35% hits; AID 488862;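 active = every replicate at 50% or more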;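 note: 0 = median of the neutral control wells; tested in H4 reporter cells; numbers are from one replicate; inactives centre near -14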
ugtP null kill = compounds lethal to S. aureus RN4220 ugtP deletion mutant; growth inhibition, % (no concentration beside the values); 330,000 compounds, 0.54% hits; OD600 growth, 16 h; some inactives read as strong as hits; AID 1259309;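 active = z-score under -3 and OD600 up to 0.15 on both plates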;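 note: plate controls were untreated wells for no effect and antibiotic for full effect; wells of about 80 µL received 100 nL stock; the first replicate is given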
BJeLR viability = BJeLR cell viability loss | inhibition, % (no concentration beside the values) | AID 1554 | BJeLR (HRASV12) viability, CellTiter-Glo ATP luminescence, 48 h; reference of the scale not given here | 300,000 compounds, 0.17% hits;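 active = replicate mean above 50%; inconclusive = above 50% but judged a plate artefact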;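 note: 50 nL library stock added to about 25 µL; numbers are from one replicate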
Mtb hypoxia rep growth = recorded beside Mtb hypoxia rep, whose call it bears; growth inhibition, %; measured here: M. tuberculosis growth (absorbance);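 0% = vehicle and 100% = reference antibiotic; read after six days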
* = called active by the depositor; ? = inconclusive; nt = not tested or not shown.

Compound,ugtP null kill,BJeLR viability,PrP UTR inh,Mtb hypoxia rep growth,Autofluor counter,Mtb hypoxia rep,Sa RN4220 lethal
NS(=O)(=O)c1ccc(CCNC(=O)C2CCN(C(=O)Nc3ccccc3)CC2)cc1,7,nt,-11,6,2973,3,2.1
Cc1ccc2oc(=O)c3cnn(CC(=O)N(CCCN4CCOCC4)Cc4ccco4)c3c2c1,11,nt,-5,-6,4685,-2,-1.2
COc1ccc(C2CC(=O)C=C(c3ccc(OC)c(F)c3)C2)cc1 (stereo unspecified),23,nt,nt,8,nt,11,4.4
COc1ccc(OC)c(NC(=O)CCNS(=O)(=O)c2cc(Br)cnc2N)c1,9,2,-15,6,5047,5,7.2
CCC1CCCCN1S(=O)(=O)c1ccc(C(=O)N(CCCN(C)C)c2nc3cc4c(cc3s2)OCO4)cc1 (stereo unspecified),5,-8,0,0,nt,3,1.7
CCOC(=O)C1CCN(c2cc3c(cc2NC(=O)c2ccccc2Br)n(C)c(=O)n3C)CC1,5,-4,-10,1,4031,1,2.5
Cc1cc(C(=O)OCC(=O)Nc2ccccc2Br)c(C)o1,7,nt,-15,8,3699,18,7.0
CN(C)c1ccc(C=Nn2c(C3CCCCC3)n[nH]c2=S)cc1,-1,nt,nt,-3,nt,-6,-0.1
c1ccc(-c2cn(C[C@H]3CC[C@H](Cn4cc(-c5ccccn5)nn4)O3)nn2)nc1,nt,-1,-21,nt,3879,nt,nt
COc1ccc(C)cc1NC(=O)C(=O)NNC(=O)c1ccco1,7,1,-17,-1,3681,-1,2.4
Cc1ccc(OCCSc2nc(N)cc(N)n2)cc1,8,4,-60,3,2775,2,3.1
Cc1nn(C(C)C(=O)NCCCN2CCCCCC2)c(=O)c2c1sc1ccccc12 (stereo unspecified),-4,1,-14,8,7507,1,2.3
COCCNC(=O)c1onc(CSc2ccncc2)c1C(=O)NCCOC,0,-4,3,5,4079,8,5.3
COc1ccc(C(=O)N2CCN=C2c2ccccc2)cc1OC,1,0,-11,nt,nt,nt,-2.0
CN(c1ccccc1)S(=O)(=O)c1cccc(C(=O)NCc2ccccc2)c1,6,nt,-23,2,3080,9,4.1
COc1cc(OC)cc(C(=O)NNC(=O)CCc2nc3ccccc3c(=O)[nH]2)c1,3,nt,nt,8,5272,6,0.8
Cc1ccc(NC(=O)C2C3C=CC4(O3)C2C(=O)N(CCN2CCOCC2)C4C(=O)NC2CCCCC2)cc1C (stereo unspecified),4,8,-16,-13,3750,2,-2.3
COc1cccc(C2=NOC(C(=O)Nc3ccc4c(c3)OCO4)C2)c1OC (stereo unspecified),-4,-6,-16,3,4090,14,4.5
C=CCSc1nc2ccccc2n1Cc1nnc(-c2cccs2)o1,-3,-4,-20,11,nt,3,3.8
Cc1ccccc1C(=O)NC(C(=O)Nc1nc2c(s1)CCCC2)C(C)C (stereo unspecified),5,-2,-23,4,2149,3,3.6
Cc1ccc(NS(=O)(=O)c2cccc(C(=O)N3CCCCCC3)c2)cc1,-2,3,-7,9,6271,-1,3.3
O=C(N1CCN(c2ccccn2)CC1)C(Cl)(Cl)Cl,17,3,-26,-7,2121,6,6.7
CN1C(=O)c2ccccc2C(C(=O)NCc2ccco2)C1c1c[nH]c2ccccc12 (stereo unspecified),9,-6,-4,nt,2671,nt,-2.2
CCCC(=O)Nc1ccc(NC(=O)c2cccc(OC)c2)nc1,7,4,-90,nt,2436,nt,-1.7
COC(=O)c1ccc(N2CCCCC2)c(N)c1,5,-2,-29,2,4217,11,10
O=C(CN1CCN(C(=O)C2CCCO2)CC1)Nc1ccc(Br)cc1 (stereo unspecified),3,-7,-20,9,6294,1,2.8
O/C(=C\c1ccc2ccccc2n1)c1ccc(O)cc1O,4,-1,-40,12,10252,7,-3.8
O=c1c(-c2nn[nH]n2)coc2ccc(Cl)cc12,8,0,-4,4,4461,15,13
Cc1ccc(-c2cc(=O)[nH]c(NCc3ccccc3)n2)cc1,14,1,-7,-19,6203,0,-3.5
O=C(N/N=C/c1c(O)n(CCc2ccccc2)c(=O)[nH]c1=O)c1ccccc1O,2,-2,2,1,4810,-1,4.6
CCOc1ccc2cc(C(=O)c3ccccc3)c(=O)oc2c1,2,2,-54,7,10676,16,9.7
CCCCCCC=Cc1ccc(C2C3C=CCC(C)C3C(=O)N2Cc2ccccc2)c(F)c1 (stereo unspecified),6,nt,nt,11,nt,16,1.5
Cc1ccc(C(=O)N2CCN(c3ccc(NC(=O)c4cccnc4Cl)cc3)CC2)cc1,6,-4,-14,4,2962,8,2.0
COc1ccc(N2CCN(C(=O)CSc3nc4c(c(=O)n(C)c(=O)n4C)n3C(C)C)CC2)cc1,1,0,-23,5,8344,3,2.1
CN(C)S(=O)(=O)c1ccc(C(=O)/C=C/c2cccnc2)cc1,3,40,-11,18,5932,21,5.5
COc1cc(C(=O)Nc2ccc(NC(=O)c3ccccc3Cl)nc2)cc(OC)c1OC,5,-2,2,3,4706,10,-4.8
COc1ccc2ccccc2c1/C=N/NC(=S)NCCN1CCOCC1,nt,-16,-11,nt,4264,nt,nt
COc1ccc(NC(=O)CN2CCN(c3ccc(Cl)cc3)CC2)c(OC)c1,-6,-4,5,nt,4195,nt,3.4
CN(C)C(CNC(=O)c1cccc(S(=O)(=O)NCc2ccccc2)c1)c1ccco1 (stereo unspecified),4,3,-5,8,?,0,5.4
CCCn1nc(C(=O)NCCc2ccc(S(N)(=O)=O)cc2)c2ccccc2c1=O,2,-5,-5,11,3427,5,2.1
CCCSc1ncc(Cl)c(C(=O)Nc2ccc(S(=O)(=O)N3CC(C)OC(C)C3)cc2)n1 (stereo unspecified),-14,0,-10,7,9869,5,-5.6
N#CC1(NC(=O)CN2CCN(S(=O)(=O)c3ccccc3F)CC2)CCCC1,7,-4,11,9,4485,7,2.5
CC1CCCCC1NC(=O)COC(=O)COc1ccccc1F (stereo unspecified),7,nt,-26,9,4047,6,1.0
Cc1ccc(C2(C)NC(=O)N(CC(=O)c3ccc4c(c3)OCCO4)C2=O)cc1 (stereo unspecified),-2,nt,-4,5,3427,3,1.4
CCOc1ccc(S(=O)(=O)NN=C(C)C2CCCCC2)cc1,2,nt,nt,4,nt,10,4.6
CNC(=O)NC(=O)COc1c(F)c(F)cc(F)c1F,0,-4,-14,6,3702,-10,-3.0
COc1cc2c(cc1OC)C1=C(C#N)CCC(=NS(=O)(=O)c3cccc(Cl)c3)N1CC2,-6,nt,nt,-7,nt,-1,2.9
CCn1c(SCC(=O)Nc2c(C#N)cnn2-c2ccccc2)nnc1-c1cccs1,11,-16,nt,6,6726,16,5.9
Cc1cccc(N2CCN(C(=O)CCS(=O)(=O)c3ccc(Br)cc3)CC2C)c1 (stereo unspecified),3,-3,-15,3,2392,3,3.5
Cc1ccc(-c2cc(C3C4C=CCC(C)C4C(=O)N3Cc3ccccc3)ccc2F)cc1 (stereo unspecified),-5,nt,nt,4,nt,13,-8.2
Clc1cc2nc(-c3cccnc3Cl)[nH]c2cc1Cl,4,-3,-77,8,3303,6,5.9
Cc1ccc(CNC(=O)C2(S(=O)(=O)c3ccccc3)CC=CC2)cc1,nt,-6,-69,nt,3790,nt,nt
O=C(O)CN1C(=O)/C(=C\c2cc(Br)ccc2OCc2ccc(F)cc2)SC1=S,8,2,-13,4,3063,-1,4.6
CCN(CCCNC(=O)C1CCC(=O)N1C(C)C)c1cccc(C)c1 (stereo unspecified),-2,3,-29,6,10381,-3,-0.9
COc1ccc(Cc2c(C)nc(N)nc2Cl)cc1,7,-5,-10,4,2159,4,2.4
N#Cc1ccc(-c2ccccc2)nc1Sc1ccc(F)cc1,0,-2,-25,2,8501,-3,0.9
CC(=O)N=c1scc(-c2ccccc2)n1-c1cccc(O)c1,3,1,-6,-2,4202,-1,6.2
COc1ccccc1C(C)=NOc1cc(N)cc([N+](=O)[O-])c1,-3,nt,nt,-5,nt,0,0.7
CC(C)(C)N1CC(c2nc3ccccc3n2Cc2ccc(Cl)cc2)CC1=O (stereo unspecified),-21,5,-18,-2,15382,7,4.3
CSc1ncccc1C(=O)OCC(=O)N1CCCC1,5,nt,-18,4,5196,9,3.0

(next part)
Compound,ugtP null kill,BJeLR viability,PrP UTR inh,Mtb hypoxia rep growth,Autofluor counter,Mtb hypoxia rep,Sa RN4220 lethal
CCC(NS(=O)(=O)c1cnn(CC)c1)c1ccccc1 (stereo unspecified),1,-2,-27,0,4754,16,6.2
CCC(=O)Nc1cccc(NC(=O)COc2ccc(OC)cc2)c1,8,-8,1,nt,4601,nt,1.4
CC(C)c1ccc(NC(=O)CNCC(c2ccccc2)N(C)C)cc1 (stereo unspecified),5,2,-13,2,5766,8,-0.5
Cc1noc(/C=C/c2nn(C)cc2Cl)c1[N+](=O)[O-],13,4,3,13,4461,16,6.3
COc1ccccc1CC(=O)Nc1ccc2c(c1)OC1(CCCC1)O2,6,nt,-27,-3,3487,9,-7.6
O=S1(=O)N=C(Oc2cccc3ccccc23)c2ccccc21,0,0,-17,4,9160,19,5.8
O=C(O)CCC(=O)N1CCc2cc(S(=O)(=O)NC3CCCC3)ccc21,-4,-1,-10,-1,21391*,-3,-3.1
Cc1nc(N2CCN(C(=O)c3ccco3)CC2)nc2c1C(=O)CCC2,3,3,-35,-1,5819,2,4.0
CCC(C(=O)N1CCc2ccccc2C1)n1nc(C)n2c(cc3occc32)c1=O (stereo unspecified),-2,-5,-9,7,3400,5,2.9
CC(NC(=O)COC(=O)CN1C(=O)c2ccccc2C1=O)c1ccccc1 (stereo unspecified),5,nt,-11,3,?,0,3.0
O=C1NC(=O)C2C3c4ccccc4C(c4ccccc43)C12 (stereo unspecified),-9,4,-7,-13,10434,-1,-1.2
Cc1c(Cl)cccc1NC(=O)N1CCCN(c2nc(-c3ccccc3)ns2)CC1,-5,4,-20,9,6401,11,-2.8
FC(F)(F)c1cccc(OCCN2CCN(Cc3ccccc3)CC2)c1,1,-2,-26,2,10446,3,5.4
COc1ccc(Cc2nc3ccc(C(=O)NCCn4cccn4)cc3o2)cc1,9,4,-16,8,4521,-1,1.8
O=C(Cn1cnc2c(nnn2-c2ccccc2)c1=O)N1CCC(Cc2ccccc2)CC1,11,4,0,6,6181,-2,19
CCCCN(C(=O)c1cccc(N2C(=O)c3ccccc3C2=O)c1)c1c(N)n(CCCC)c(=O)[nH]c1=O,1,nt,3,11,3669,0,-2.4
CCCCCC(C)NC(=O)c1ccoc1C (stereo unspecified),2,-1,-12,18,4063,15,0.3
CCCN(CCC)C(=O)Cn1c(=O)c2sccc2n2c(=S)sc(-c3ccccc3)c12,8,0,-20,nt,5218,nt,6.7
CC(=O)c1ccc(N2CCN(Cc3nc4ccccc4[nH]3)CC2)cc1,13,6,-24,9,3668,0,4.0
CCNC(=O)O/N=C1\CCCCC1c1ccc([N+](=O)[O-])cc1[N+](=O)[O-] (stereo unspecified),nt,-11,-13,nt,3530,nt,nt
CCC1=C(c2cc(OC)c(OC)c(OC)c2)C2(CCCC2)C(=O)O1,-4,-12,-22,1,2915,6,-7.3
COc1ccc(-c2nnc3n2CCCCC3)cc1,-2,4,-17,-10,3896,11,0.9

From PubChem BioAssay

Rows were taken by chance; any-hit rate near 4.1%.
